Vif TR-FRET – HIV-1 Vif–A3G interaction blockers – biochemical, TR-FRET, GST-Vif 1-94, biotin-A3G peptide, dose response retest, primary screen (AID 1117319). TR-FRET GST-Vif / biotin-A3G peptide binding; higher % means a stronger effect; test concentration not given here; strong numbers were not always called active. inhibition, %; hits with a dose series show IC50 in µM. 260,000 tested, 0.57% active;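 active means above the screen mean plus three standard deviations and confirmed in dose response; inconclusive means results disagree or hit not tested in dose response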;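 further: Vif residues 1-94 fused to GST binding biotinylated APOBEC3G peptide 110-148; 0% = full assay without inhibitor and 100% = GST in place of GST-Vif; retest series ran down from 100 µM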
Ecoli growth – blocks Escherichia coli growth; OD600, 23 h; active compounds read low; 330,000 tested, 0.21% active; OD600 absorbance (no concentration beside the values);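 active means OD600 absorbance below the run mean of sample wells minus 3.6 SD, in any replicate, cut at about 0.56 in these data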;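 further: stock transfer was 300 nL into about 60 µL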
B2AR ag – agonists of human beta-2 adrenergic receptor inducing internalization. P07550. Am2.2-beta2AR cells, FAP receptor internalization, flow cytometry; reference of the scale not given here. response, % (test concentration not listed). 340,000 tested, 0.43% active. AID 504454;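 active means response above a set limit, near 3 SD of response in nonfluorescent compounds, cut at about 42% in these data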;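 further: stock transfer was 100 nL into about 11 µL; a reference agonist was the positive control; negative values mostly stem from fluorescent compounds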
Target sequence (P07550 whole entry, looked up): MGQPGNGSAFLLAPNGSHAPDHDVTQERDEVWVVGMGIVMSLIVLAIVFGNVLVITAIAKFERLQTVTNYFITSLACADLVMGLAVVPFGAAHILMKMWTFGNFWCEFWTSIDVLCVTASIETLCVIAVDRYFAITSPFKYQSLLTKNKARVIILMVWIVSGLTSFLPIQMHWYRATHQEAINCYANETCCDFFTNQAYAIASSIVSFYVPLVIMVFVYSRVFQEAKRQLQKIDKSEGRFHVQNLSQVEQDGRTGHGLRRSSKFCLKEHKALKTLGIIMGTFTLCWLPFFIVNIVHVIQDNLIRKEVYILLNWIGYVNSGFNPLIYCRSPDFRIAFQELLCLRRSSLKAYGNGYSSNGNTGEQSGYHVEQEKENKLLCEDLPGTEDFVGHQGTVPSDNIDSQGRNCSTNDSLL
HNF4A DNA FP – change in binding of human HNF4 alpha to DNA; P41235; AID 1224865; 360,000 tested, 0.3% active; activity change, % at 10 µM; HNF4a-FITC DNA binding, fluorescence polarization, 1 h; in the data active means activity change above about 30%, passing the limit was not always enough;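 further: controls were the assay level and a saturating level of protein; the project sought stronger binding though the title names inhibitors; some compounds called inactive have numbers as strong as hits; positive values seem to mean higher polarization but the record does not say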
Target sequence (P41235 whole entry, looked up): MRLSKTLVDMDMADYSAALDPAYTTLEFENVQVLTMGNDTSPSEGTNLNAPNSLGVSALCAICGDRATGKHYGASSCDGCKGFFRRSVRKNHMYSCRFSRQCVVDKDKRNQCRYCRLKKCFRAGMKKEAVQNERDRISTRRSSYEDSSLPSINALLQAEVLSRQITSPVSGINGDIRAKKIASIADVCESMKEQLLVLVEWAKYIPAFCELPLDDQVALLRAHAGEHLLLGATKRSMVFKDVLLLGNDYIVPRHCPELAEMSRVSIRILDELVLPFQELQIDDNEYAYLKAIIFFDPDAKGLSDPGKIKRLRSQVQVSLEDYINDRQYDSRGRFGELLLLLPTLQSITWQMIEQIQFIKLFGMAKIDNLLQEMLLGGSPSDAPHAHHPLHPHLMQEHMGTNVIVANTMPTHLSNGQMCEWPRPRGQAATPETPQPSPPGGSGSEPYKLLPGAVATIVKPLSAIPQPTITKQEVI
UCH37 inh – inhibitors of human deubiquitinating enzyme UCH37; Q9Y5K5; purified proteasome/UCH37, Ub-AMC cleavage fluorescence; inhibition, % (test concentration not listed); 330,000 tested, 0.33% active; AID 588478;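 active means mean of two replicates above 20%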;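 further: 0% = compound-free wells with enzyme and 100% = wells lacking proteasome; stock transfer was 100 nL into about 20 µL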
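system = Proteasome-associated human UCH37 deubiquitinase | amount = 0.15 nM proteasome as dispensed | medium = pH 7.4 Tris-HCl (50 mM) with ovalbumin, ATP-MgCl2, DTT | incubation = 30 min preincubation with enzyme, 25 min cleavage at room temperature | detection = AMC fluorescence 355/460 nm | read-out basis = percent inhibition | controls = no-proteasome and no-compound wells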
LANA-H2A inh – blocks KSHV LANA binding to histone H2A/H2B. Q9QR71. cell-free LANA-H2A/H2B peptide, fluorescence polarization. inhibition, % (concentration not given with the values). 320,000 tested, 0.6% active; in the data active means inhibition mostly above about 10%, no sharp cut-off; inactive means mostly below about 6.7%;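 further: stock transfer was 7.5 nL into about 10 µL; 0% = median of vehicle wells and 100% = median of positive control wells; one replicate is shown; the record names a cut of 25% in any replicate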
A1 inh – inhibitors of the anti-apoptotic protein A1, read as caspase activation | 330,000 tested, 0.066% active | AID 2462 | MEF A1-2A-BIM cells, Caspase-Glo 3/7 luminescence, 3 h; percent of clofoctol response, vehicle zero | caspase activation, % (test concentration not listed);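 active means over half of replicate activation scores above 10%, or exactly half above 10 with the replicate mean above 10; inconclusive means replicate mean below 10 yet half the replicates above 10; inactive means over half of replicates below 10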;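 further: wells of about 30 µL received 50 nL stock; many hits fall short of the cut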
Active calls of the source: *; ? = inconclusive; . = no result given. This is a random part of the collection; about 2.1% have a hit in one of these screens.

SMILES	Vif TR-FRET	Ecoli growth	B2AR ag	HNF4A DNA FP	UCH37 inh	LANA-H2A inh	A1 inh
N=C1C(c2nc3ccccc3s2)=C(O)CN1C1CCC(O)CC1 (stereo unspecified)	-16.5%	0.699	.	.	-0.1	3.4	0.9
CCCCN(c1ccccc1)S(=O)(=O)c1cccc(C(=O)O)c1	7.0%	0.684	-3.3	-0.6	3.0	-3.1	1.0
O=C(Nc1ccc(F)cc1F)c1csc(-c2ccncc2)n1	.	0.62	-0.2	-0.8	2.4	1.7	-0.1
COc1ccc(N(C(=O)Cn2nnc(-c3ccc(F)cc3)n2)C(C)C(=O)NC2CCCC2)cc1 (stereo unspecified)	-0.9%	0.703	-2.4	-2.7	4.8	1.5	0.4
CCCc1cc(=O)[nH]c(SCC(=O)Nc2sccc2C#N)n1	13.3%	0.676	7.3	-0.9	2.0	.	.
COc1ccc(/C=N/NC(=O)c2cc[n+]([O-])cc2)cc1OC	.	.	-2.2	1.5	.	0.2	0.1
Cc1ccc(-c2cc(C(F)F)nc(N3CCC(C)CC3)n2)cc1	-3.8%	0.743	1.9	5.6	-55.3	-5.0	-0.5
Cc1cccc(NC(=O)CCC(=O)Nc2nnc(C(F)(F)F)s2)c1	-3.6%	0.636	-1.7	2.6	5.1	-2.6	0.0
Cc1cc(C)n(C(=O)CSc2ccc(Cl)cc2)n1	5.2%	0.708	0.9	6.0	-1.3	-6.9	-0.5
O=C(COC(=O)c1ccc(Cl)nc1)Nc1ccc(N2CCOCC2)cc1	0.8%	0.637	-12.6	-1.6	3.0	.	.
CCCCCCN(C(=O)CCCCCN1C(=O)NC(c2ccc([N+](=O)[O-])cc2)C(C(=O)OCc2ccccc2)=C1C)C(C(=O)NCCCC)C1CCCCC1 (stereo unspecified)	-0.2%	0.707	4.1	4.6	0.2	.	.
COCCN(C(=O)c1ccc(C#N)cc1)c1c(N)n(Cc2ccccc2)c(=O)[nH]c1=O	-2.5%	0.704	3.8	-0.3	-0.2	-0.4	1.8
COc1cccc(/C=C(/C#N)c2ccc(F)cc2)c1OCc1cccc(C(=O)O)c1	.	0.668	12.5	-2.0	1.3	-5.7	-0.3
CC(OC(=O)c1ccncc1)C(=O)Nc1cccc([N+](=O)[O-])c1 (stereo unspecified)	5.3%	0.638	-1.4	0.3	6.3	3.2	0.7
COc1cc(C(CC(=O)Nc2ccc(C)cn2)N2Cc3ccccc3C2=O)cc(OC)c1OC (stereo unspecified)	-0.1%	0.659	-15.3	1.0	3.9	0.3	0.5
CC12CCC3c4ccc(O)cc4CCC3C1CC(=NO)C2O (stereo unspecified)	1.3%	.	17.6	-4.5	.	.	.
Cc1oc(-c2cc3c(cc2Cl)OCO3)nc1CN1CCCC(C(=O)N2CCOCC2)C1 (stereo unspecified)	3.3%	0.707	-9.6	-2.6	3.7	4.6	0.0
O=C(CN1C(=O)NC2(CCCCC2)C1=O)Nc1ccccc1Cl	2.8%	0.657	3.9	-1.1	0.1	0.0	-0.9
CCCCOC(=O)Nc1ccc(C(C)C)cc1	-3.6%	0.668	2.7	-1.4	1.3	4.8	-0.3
CCN(C(=O)c1cccc(F)c1)c1ccccc1C	0.7%	0.706	3.3	0.1	1.4	3.8	-0.2
Cc1cc(C)cc(OCC(=O)OCC(=O)NC2CC2)c1	-2.1%	0.661	-1.2	8.4	3.2	2.1	0.4
COC(=O)C1CC(=O)N(CCc2c[nH]c3ccccc23)C1 (stereo unspecified)	-2.0%	0.722	5.0	-2.9	4.6	-3.3	-0.1
COc1cc(OC)cc(C(=O)Nc2nc3ccccc3[nH]2)c1	29.1%	0.686	-7.1	-0.2	1.3	-4.1	-2.8
Cc1nc(=O)c(-c2ccccc2)c(C)n1CCCO	-5.5%	0.671	7.3	-7.9	-0.7	1.3	0.0
Cc1ccc(Oc2nsnc2N2CCOCC2)cc1	-0.4%	0.684	-3.3	-1.7	2.3	-2.2	-0.9
CCc1ccc(N(CC(=O)Nc2sc3c(c2C(=O)OC)CCCC3)S(C)(=O)=O)cc1	4.3%	0.722	-6.8	1.4	-2.2	.	0.1
Cc1cc2ccccc2c(=O)n1CC(=O)NCCC1=CCCCC1	-3.6%	0.729	1.9	3.9	55.2*	7.5	0.5
Cc1c(CC(=O)O)c(=O)oc2cc3occ(-c4ccc(F)cc4)c3cc12	1.6%	0.628	-16.2	4.5	-5.3	2.0	-2.1
C[C@H](NC(=O)C1CCN(S(=O)(=O)c2ccccc2)CC1)C(=O)NCc1cccc(C(F)(F)F)c1	.	0.675	-2.1	-1.8	4.5	-3.1	-0.9
COc1ccccc1CNC(=O)C(C)Sc1ccc(C)cc1 (stereo unspecified)	2.1%	0.683	-6.5	2.8	3.5	6.7	0.7
CCN(Cc1ccc(O)cc1)CC1CCCN(CCc2cccc(F)c2)C1 (stereo unspecified)	2.5%	0.683	5.8	0.2	5.1	0.4	0.7
CCNc1nc(NCC)n2c(SCC(=O)Nc3ccc(C)c(C)c3)nnc2n1	2.1%	0.682	-8.3	-1.4	1.0	.	-0.4
Nc1ccccc1Nc1ccccc1	?	0.754	-1.9	12.2	6.7	-2.1	0.5
COc1cc(O)c(C(CC(=O)N2CCOCC2)c2ccc(N(C)C)cc2)c(OC)c1 (stereo unspecified)	.	0.698	-10.2	0.7	3.7	3.5	-0.6
O=c1cc(N2CCCCC2)c(-c2ccccc2)nn1Cc1cccc(F)c1	.	0.712	-4.1	-1.4	2.0	-0.1	0.7
CCOCC(=O)Nc1c(C(=O)Nc2ccc3c(c2)OCO3)oc2ccccc12	.	0.73	22.4	2.2	-64.7	3.0	-0.3
O=C(CCCn1c(SCC(=O)c2ccc(F)cc2)nc2ccccc2c1=O)NCc1ccco1	-4.4%	0.742	-11.5	4.0	5.6	0.3	-0.5
O=C(NCc1ccccc1)c1cc[n+](CC(=O)c2cccs2)cc1	16.0%	0.632	2.3	3.7	3.9	3.5	-0.4
CCc1ccc(/C=C2\SC(N3CCCC3)=NC2=O)cc1	.	0.705	1.1	1.0	11.1	1.4	-0.3
CCOc1ccccc1NC(=O)c1ccc(CN2CCc3ccccc3C2)cc1	-11.9%	0.636	0.5	-1.4	2.3	3.4	-0.3
CC(C)=C(NC(=O)c1ccccc1)C(=O)NCCCC(=O)O	25.3%	0.665	-3.7	-3.8	1.3	5.3	0.5
Cc1ccc(-n2c(Cc3cccs3)nnc2SCC(=O)Nc2ccc(S(N)(=O)=O)cc2)cc1	-6.9%	0.689	5.9	0.8	0.3	1.0	0.4
CCN(CC)S(=O)(=O)c1ccc(C)c(NC(=O)COC(=O)CCC(=O)c2cccs2)c1	6.0%	0.654	-8.2	-1.2	0.5	6.0	0.7
CN(C)/C=C/C(=O)c1cnc(-c2ccccn2)s1	2.0%	0.694	2.3	-1.5	11.5	3.3	-1.0
COc1ccccc1OCCNC(=O)c1ccc2c(c1)CCC2	.	0.641	-24.9	3.0	0.9	0.3	0.6
O=C1CCCCN1CCC(=O)N1CCCC(N2CCN(c3ccccc3)CC2)C1 (stereo unspecified)	3.9%	0.712	-0.5	1.9	-2.2	0.8	-0.2
O=C(CCN1C(=O)/C(=C/c2ccccc2)SC1=S)Nc1cccnc1	-8.4%	0.671	6.2	-2.6	0.8	2.2	-0.1
COc1ccc(S(=O)(=O)N2CCCCC2)cc1C(=O)N1CCCCCC1	.	0.681	2.7	-3.3	3.2	-6.4	-0.9
O=C(CCCn1c(=S)[nH]c2cc3c(cc2c1=O)OCO3)NCc1ccccc1Cl	.	0.714	-2.6	4.3	-1.5	-1.2	-0.3
CCOc1ccc(N=C(C)c2ccccc2O)cc1	6.0%	0.608	-56.3	0.9	2.2	4.6	-0.3

Part of the list above in order of SMILES length, smallest number first:
SMILES	Vif TR-FRET	Ecoli growth	B2AR ag	HNF4A DNA FP	UCH37 inh	LANA-H2A inh	A1 inh
Cc1cc(C)n(C(=O)CSc2ccc(Cl)cc2)n1	5.2%	0.708	0.9	6.0	-1.3	-6.9	-0.5
O=C(NCc1ccccc1)c1cc[n+](CC(=O)c2cccs2)cc1	16.0%	0.632	2.3	3.7	3.9	3.5	-0.4
Cc1oc(-c2cc3c(cc2Cl)OCO3)nc1CN1CCCC(C(=O)N2CCOCC2)C1 (stereo unspecified)	3.3%	0.707	-9.6	-2.6	3.7	4.6	0.0
COCCN(C(=O)c1ccc(C#N)cc1)c1c(N)n(Cc2ccccc2)c(=O)[nH]c1=O	-2.5%	0.704	3.8	-0.3	-0.2	-0.4	1.8
CCCCCCN(C(=O)CCCCCN1C(=O)NC(c2ccc([N+](=O)[O-])cc2)C(C(=O)OCc2ccccc2)=C1C)C(C(=O)NCCCC)C1CCCCC1 (stereo unspecified)	-0.2%	0.707	4.1	4.6	0.2	.	.

Compound profiles, as listed above.
CCOc1ccc(N=C(C)c2ccccc2O)cc1 in the list: Vif TR-FRET: 6.0%; Ecoli growth: 0.608; B2AR ag: -56.3; HNF4A DNA FP: 0.9; UCH37 inh: 2.2; LANA-H2A inh: 4.6; A1 inh: -0.3
CC(C)=C(NC(=O)c1ccccc1)C(=O)NCCCC(=O)O in the list: Vif TR-FRET: 25.3%; Ecoli growth: 0.665; B2AR ag: -3.7; HNF4A DNA FP: -3.8; UCH37 inh: 1.3; LANA-H2A inh: 5.3; A1 inh: 0.5
CCN(CC)S(=O)(=O)c1ccc(C)c(NC(=O)COC(=O)CCC(=O)c2cccs2)c1 in the list: Vif TR-FRET: 6.0%; Ecoli growth: 0.654; B2AR ag: -8.2; HNF4A DNA FP: -1.2; UCH37 inh: 0.5; LANA-H2A inh: 6.0; A1 inh: 0.7

Other results
SMILES	Vif TR-FRET	Ecoli growth	B2AR ag	HNF4A DNA FP	UCH37 inh	LANA-H2A inh	A1 inh
COc1ccccc1/C=C/C=N/N1CCN(Cc2cccc3ccccc23)CC1	-3.9%	.	7.3	2.8	.	0.1	1.5
O=C(COc1cccc(C(F)(F)F)c1)Nc1cccc(S(=O)(=O)NC2=NCCCCC2)c1	.	0.637	6.8	0.8	3.3	.	.
CSc1ccc(CCNS(=O)(=O)c2csc(C(N)=O)c2)cc1	.	0.727	3.2	-2.7	2.9	1.3	-0.4
Clc1ccc(OCCn2ccnc2)c(Br)c1	3.8%	0.696	-4.1	-2.2	2.8	-5.5	-0.7
COc1ccc(OCC(=O)Nc2ccccc2O)cc1	2.4%	0.647	0.0	5.5	1.6	2.4	-0.2
Cc1cc(NS(=O)(=O)c2ccc(NC(=O)CNS(=O)(=O)c3ccccc3)cc2)nc(C)n1	-1.2%	0.631	0.5	2.4	1.2	1.2	0.7
CCN(CC)S(=O)(=O)c1ccc2[nH]cc(C(=O)NC3CC3)c(=O)c2c1	.	0.652	1.9	2.1	-3.5	1.0	0.3
CC(C)(C)OC(=O)[C@H](Cc1ccccc1)NC(=O)c1nc[nH]c1C(=O)NC1CCNCC1	.	.	-7.7	0.2	9.2	0.4	0.7
CC[C@]1(C(=O)OC)[C@H]2C(=O)N(Cc3ccccc3)C(=O)[C@H]2[C@H]2CN=C(SCc3ccc(C)cc3)N21	-0.7%	0.713	3.9	2.1	1.6	.	.
CCN(CC)CCN(CC(=O)N(C1CCCCC1)C1CCCCC1)C(=O)c1cccnc1	?	0.678	-2.6	5.2	0.6	3.4	2.1

Assay outcomes (PubChem)
